Compound activity (PubChem)
PK Bst: alters activity of Bacillus stearothermophilus pyruvate kinase; AID 361; partly purified Bacillus stearothermophilus pyruvate kinase, luminescence ATP production; ribose 5-phosphate activator present at AC10; Potency, µM; 51,000 compounds, 1.2% hits; in the data active means potency below about 11 µM; inconclusive means mostly about 12 µM to 25 µM; inactive means weaker than that;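 the screen sought inhibitors and activators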;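 note: potency is the fitted concentration of half-maximal effect; scaled between full activation by ribose 5 phosphate and full inhibition by luteolin; about four in five hits inhibit and the cells do not say which; series up to 57 µM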
YjeE inh: inhibitors of E. coli YjeE (TsaE) | P0AF67 | purified YjeE, fluorescence polarisation of a bound ADP probe | Potency, µM | 71,000 compounds, 0.05% hits | AID 605; active = well fitted falling curve; inconclusive = weaker or top-dose-only fall, or a rising curve; inactive = flat or poorly fitted curve;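 note: top concentration of the series not given in the record; excess ADP was the control for the full effect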
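Fluorescence polarization of a BODIPY Texas Red–ADP probe (2 uM) bound to purified YjeE (10 uM) was read after 15 min room-temperature incubation with compounds. Loss of polarization marks inhibitors; ADP serves as titrated control.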
Starred values were filed as active, the others as inactive; i = inactive; u = inconclusive; x = no result given. Some of the compounds tested; count on the stated rates, not on these rows.

SMILES | PK Bst | YjeE inh
CCc1nc2oc3cc(OC)ccc3c(=O)c2c(=O)n1Cc1ccco1 | x | i
O=S(=O)(c1cccc2nsnc12)N1CCOCC1 | >57 | i
CN(CC(=O)Nc1ccncc1)S(=O)(=O)c1ccccc1 | >57 | i
CCOc1cccc2cc(C(=O)N3CCc4ccccc4C3)c(=O)oc12 | >57 | i
Cc1ccccc1C(=O)NC1CCN(Cc2nnnn2CCc2ccccc2)CC1 | >57 | i
CCOc1ccc(-c2[nH]nc3c2C(c2ccc(O)cc2)C(C#N)=C(N)O3)cc1 (stereo not drawn) | x | i
COc1ccc(C/C(N)=N/n2cnnc2)cc1 | x | i
COc1ccccc1Oc1coc2cc(O)ccc2c1=O | >57 | i
Cc1nnc2ccc(N3CCCC3)nn12 | >57 | i
CCCn1nc(-c2ccccc2)c2nc3ccccc3nc21 | >57 | i
COc1ccc(OC)c(-c2cc(C(=O)Nc3c(C)nn(Cc4ccccc4)c3C)no2)c1 | >57 | i
CCOC(=O)/C(C(N)=NC)=C(\O)c1ccccc1 | >57 | i
COc1ccc(OC)c(C2=NOC(C(=O)Nc3cc(C)nn3-c3ccccc3)C2)c1 (stereo not drawn) | x | i
CCc1ccc2[nH]c(=O)c(CN(CCN(CC)CC)C(=O)NC3CCCCC3)cc2c1 | >57 | i
O=C1Nc2ccccc2N=C(c2ccccc2)C1N1CCOCC1 (stereo not drawn) | >57 | i
O=C(Nc1ccc2c(c1)OCO2)C(c1ccccc1)N1CCCCC1 (stereo not drawn) | x | i
COc1ccccc1OCc1ccc(C(=O)n2nc(C)c(Cl)c2C)o1 | >57 | i
COc1ccc(C(=O)Nc2ccc3c(c2)nc2n3CCSC2)cc1 | u | i
CCC(=Nc1ccc(Cc2ccncc2)cc1)c1c(O)n(C)c(=O)n(C)c1=O | >57 | i
CC(=O)N1CCc2cc(S(=O)(=O)NCCC(=O)N3CCc4ccccc4C3)ccc21 | >57 | i
O=C(Nc1ccc2c(c1)OCO2)C1CCN(C(=O)c2cccs2)CC1 | >57 | i
CCCOc1ccc(C2c3c(oc4ccccc4c3=O)C(=O)N2CCCN2CCOCC2)cc1 (stereo not drawn) | >57 | i
O=C(O)c1cccnc1SC1CC(=O)N(Cc2ccccc2)C1=O (stereo not drawn) | >57 | i
Cc1ccc(C(=O)CSc2nnc(-c3ccccc3N)n2C)cc1 | >57 | i
CCCCOc1ccc(C(=O)CCNC(C(=O)O)C(C)CC)cc1 (stereo not drawn) | >57 | i

Among those listed so far, 8 have a carbonyl joined to an NH by a bond outside any ring:
SMILES | PK Bst | YjeE inh
CN(CC(=O)Nc1ccncc1)S(=O)(=O)c1ccccc1 | >57 | i
Cc1ccccc1C(=O)NC1CCN(Cc2nnnn2CCc2ccccc2)CC1 | >57 | i
COc1ccc(OC)c(-c2cc(C(=O)Nc3c(C)nn(Cc4ccccc4)c3C)no2)c1 | >57 | i
COc1ccc(OC)c(C2=NOC(C(=O)Nc3cc(C)nn3-c3ccccc3)C2)c1 (stereo not drawn) | x | i
CCc1ccc2[nH]c(=O)c(CN(CCN(CC)CC)C(=O)NC3CCCCC3)cc2c1 | >57 | i
O=C(Nc1ccc2c(c1)OCO2)C(c1ccccc1)N1CCCCC1 (stereo not drawn) | x | i
COc1ccc(C(=O)Nc2ccc3c(c2)nc2n3CCSC2)cc1 | u | i
O=C(Nc1ccc2c(c1)OCO2)C1CCN(C(=O)c2cccs2)CC1 | >57 | i

Carrying on:
SMILES | PK Bst | YjeE inh
CC(c1ccccc1)N1CC(C(=O)N2CCN(c3ccccc3)CC2)CC1=O (stereo not drawn) | x | i
CCCOC(=O)c1cc(=O)[nH]c2ccccc12 | x | i
CCn1c(C(=O)N2CCC(C(=O)NCc3cccs3)CC2)cc2sccc21 | x | i
Oc1c(Br)cc(Br)cc1CN(Cc1cc(Br)cc(Br)c1O)C1CCCCC1 | x | i
COc1ccc(OC)c(S(=O)(=O)N2c3ccccc3CC2C)c1 (stereo not drawn) | >57 | i
CC(C)(O)C(=O)O | x | i
CCCOc1ccc(/C(O)=C2/C(=O)C(=O)N(CCN(C)C)C2c2ccco2)cc1 (stereo not drawn) | x | i
Cc1ccc(-n2c(C)cc(C)c(C#N)c2=O)cc1 | >57 | i
O=C(CS(=O)(=O)c1c[nH]c2ccccc12)N1CCCCC1 | >57 | i
C[C@H](NC(=O)C1(c2ccccc2)CCN(C(=O)[C@H]2CSCN2C(=O)OC(C)(C)C)CC1)C(=O)O | >57 | i
O=S(=O)(CC(CN1CCCC1)N1CCCC1)c1ccc2ccccc2c1 (stereo not drawn) | >57 | i
CCOC(=O)c1c(NC(C)=O)sc2c1CCCNC2=O | x | i
C1CCOC1 | x | i
FC(F)(F)c1ccccc1-c1cc(NCc2cccnc2)ncn1 | x | i
C=CCN(C(=O)CNC(=O)c1ccco1)C(C(=O)NC1CCCCC1)c1ccc(OC)cc1OC (stereo not drawn) | >57 | i
COC(=O)CSc1nc2ccccc2n1CC(=O)N(C(C)C)C(C)C | >57 | i
CC(C)c1nc2cc3ccccc3cc2[nH]1 | x | i
COc1ccc(NC(=O)C2CCCN(S(=O)(=O)c3cccc4cccnc34)C2)cc1OC (stereo not drawn) | x | i
N#CCCN(C1CCCCC1)S(=O)(=O)CCOc1ccccc1 | >57 | i
COc1ccc(N(C(=O)COc2ccccc2)C2C=CS(=O)(=O)C2)c(OC)c1 (stereo not drawn) | >57 | i
CC12CCC(C(=O)N3CCN(c4ncccn4)CC3)(c3nc4ccccc4nc31)C2(C)C (stereo not drawn) | >57 | i
Cc1ccccc1-c1nc(Nc2ccncc2)c2ccccc2n1 | x | i
O=S1(=O)CCN2C(=N1)SC1=C2CCN(Cc2ccccc2)C1 | >57 | i
C=CCc1cccc2cc(NC(C)=O)c(=O)oc12 | >57 | i
CCN(CC)S(=O)(=O)c1ccc(F)c(C(=O)NCCCN2CCOCC2)c1 | >57 | i

A different layout for some results above.
Results follow in this order: PK Bst, YjeE inh
CC(C)(O)C(=O)O
→ x, i
CCCOc1ccc(/C(O)=C2/C(=O)C(=O)N(CCN(C)C)C2c2ccco2)cc1 (stereo not drawn)
→ x, i
Cc1ccc(-n2c(C)cc(C)c(C#N)c2=O)cc1
→ >57, i

Some of the entries so far, as a markdown table:
| SMILES | PK Bst | YjeE inh |
| --- | --- | --- |
| C=CCN(C(=O)CNC(=O)c1ccco1)C(C(=O)NC1CCCCC1)c1ccc(OC)cc1OC (stereo not drawn) | >57 | i |
| COC(=O)CSc1nc2ccccc2n1CC(=O)N(C(C)C)C(C)C | >57 | i |
| CC(C)c1nc2cc3ccccc3cc2[nH]1 | x | i |

Other structures.
SMILES | PK Bst | YjeE inh
COc1ccc(-c2nc3cnc(Nc4ccccc4)nc3n(C[C@H]3CCCO3)c2=O)cc1 | x | i
CC(=O)Nc1ccc(S(=O)(=O)NCc2ccc(C(=O)NCCN3CCCCCC3)cc2)cc1 | >57 | i
COc1ccc2[nH]cc(CCNc3cc(-c4ccccc4Cl)ncn3)c2c1 | x | i
CC(C)(C)n1nnnc1C(c1ccccc1F)N(Cc1ccco1)CC1CCCO1 (stereo not drawn) | >57 | i
O=C(c1ccccc1)c1coc2ccc(O)c(Cl)c12 | >57 | i
CCOC(=O)c1ccccc1NC1c2ccccc2C(=O)N1C1CCN(C(=O)OCC)CC1 (stereo not drawn) | x | i
COc1ccc(OC)c(C2=NOC(C(=O)Nc3cccnc3)C2)c1 (stereo not drawn) | >57 | i
CCOC(=O)C1=C(O)C(=O)N(c2ccc(S(N)(=O)=O)cc2)C1c1ccc(OC)cc1OC (stereo not drawn) | >57 | i
COC(=O)c1c(C#N)c(N)nc2c1CCC2 | x | i
N#CC12CCCCC1CC1CCCCC1(C#N)N2Cc1ccccn1 (stereo not drawn) | >25.6 | x
O=C(O)CCc1ccc(-c2cccs2)n1NC(=O)c1ccco1 | >57 | i
CCc1c(C)nc(/N=C(/NC(=O)c2ccccc2)Nc2ccccc2OC)[nH]c1=O | >57 | i
CCC(C)(C)n1nnnc1C(c1cc2cccc(C)c2[nH]c1=O)N1CCN(C(=O)c2ccco2)CC1 (stereo not drawn) | >57 | i
COc1ccc(S(=O)(=O)N2CCN(Cc3ccc4c(c3)OCO4)CC2)c2ccccc12 | x | i
Cn1c(C(=O)NCc2ccccn2)cc2c(=O)n(C)c3ccccc3c21 | x | i
CC1C(=O)C(C)C(c2ccco2)NC1c1ccco1 (stereo not drawn) | >57 | i
COc1ncc2nc(CCc3ccccc3)c(=O)n(Cc3ccc(F)cc3)c2n1 | x | i
CC(C)(C)C1CCc2[nH]nc(C(=O)O)c2C1 (stereo not drawn) | >57 | i
Cc1c(C(=O)OC2CCCC2C)[nH]c2c1C(=O)CCC2 (stereo not drawn) | x | i
COc1cc(OC)cc(C(=O)NC2CCSC2=O)c1 (stereo not drawn) | >57 | i
Cc1occc1-c1nnc(SCC(=O)NC(=O)NC(C)C)n1N | >57 | i
CSc1nnc(C2CCCN2)n1C (stereo not drawn) | >57 | i
COCCNC(=O)CSc1nc2ccccc2c(=O)n1CCCC(=O)NCc1ccccc1 | >57 | i
COc1ccccc1-c1nccc(NCc2ccccc2)n1 | x | i
CCN1CCN(Cc2nc3c(c(=O)n(C)c(=O)n3C)n2CC(=O)c2ccccc2)CC1 | x | i
The results go on:
SMILES | PK Bst | YjeE inh
O=C(CC1SC2=NCCN2C1=O)Nc1ccc(Br)cc1 (stereo not drawn) | >57 | i
O=C(CCS(=O)(=O)c1cccc2nonc12)Nc1cccc2c1CCCC2 | >57 | i
Cc1ccc(-c2noc(CN3CCN(Cc4ccccc4)CC3)n2)cc1 | >57 | i
O=C(C1CCN(S(=O)(=O)N2CCOCC2)CC1)N1CCc2ccccc21 | >57 | i
CCc1c(C)nc2cc(-c3cccs3)[nH]n2c1=O | x | i
O=CNc1ccccc1 | x | i
Cc1cc(C)n(C(=O)CNC(=O)COc2ccccc2)n1 | >57 | i
COCCNc1nc(SCC(=O)N2CCN(c3ccccc3OC)CC2)nc2ccccc12 | >57 | i
O=C1c2cccnc2C(=O)N1CO | >57 | i
C[C@@H](C(=O)NCCF)[C@H]1C[C@]1(C)[C@H](NC(=O)OCc1ccccc1)c1ccccc1 | x | i
COc1cc2nc(-c3cccs3)oc(=O)c2cc1OC | >57 | i
c1ccc(CCNc2ncnc3c2cnn3-c2ccccc2)cc1 | >57 | i
O=C(O)c1ccc(NS(=O)(=O)c2ccc(Cl)cc2)cc1 | x | i
CCN1CCCC1CNC1=NCCCCC1 (stereo not drawn) | >57 | i
CCOC(=O)CSc1nc2nc(C)cc(C)n2n1 | x | i
CCC1C2CN(C(C)=O)CC=C2C(C#N)=C(N)C1(C#N)C#N (stereo not drawn) | >57 | i
Cc1ccc(NC(=O)c2ccco2)c(NC(=O)CN2C(=O)c3ccccc3C2=O)c1 | >57 | i
CCCC(C(=O)NCc1ccco1)N(C(=O)CNS(=O)(=O)c1ccccc1)C1CCCC1 (stereo not drawn) | >57 | i
Fc1cccc(-c2cc3nc4c(c(N5CCN(c6cnccn6)CC5)n3n2)CCCC4)c1 | >57 | i
CCCCCC(=O)Nc1ccccc1N1CCN(c2ccccc2)CC1 | >57 | i
CS(=O)(=O)NCc1nnc(SCC(=O)NC2CCCCC2)n1-c1ccc(F)cc1 | >57 | i
CCN(CC)c1ccc(C2C(C(=O)OCCOC(C)C)=C(C)NC3=C2C(=O)CCC3)cc1 (stereo not drawn) | x | i
O=C(Nn1cnc2ccccc2c1=O)c1ccccc1Cl | >57 | i
CCOc1ccc(S(=O)(=O)N2CCN(C)CC2)c(C)c1C | >57 | i
Cc1ccc(C)c(NC(=O)CSc2nnc(-c3ccccc3C)o2)c1 | >57 | i
Later entries:
SMILES | PK Bst | YjeE inh
N#Cc1cccc(-c2nccc(NCc3cccs3)n2)c1 | x | i
CCC(=O)Nc1cccc(-c2nnc(SCC(=O)NCc3ccco3)n2C)c1 | >25.6 | x
O=C(C1CC1)N(CCc1ccccc1)Cc1nc2ccccc2c(=O)[nH]1 | >57 | i
COc1cc([C@@H]2[C@H]3CN(C)CC=C3C(C#N)=C(N)C2(C#N)C#N)cc2c1OCO2 | >25.6 | x
COC(=O)Nc1ccc(Oc2ccccc2)cc1 | >57 | i
Cc1cn(CC[C@H](N)C(=O)O)c(=O)[nH]c1=O | x | i
C=CCc1ccc(O)c(OC)c1 | x | i
Cc1nn2c3c(cnc2c1-c1ccccc1)C(=O)CC(c1ccco1)C3 (stereo not drawn) | >57 | i
COc1ccc(C2CC(c3ccc(F)cc3)Nc3nc(N)nn32)cc1OC (stereo not drawn) | x | i
O=C(Nc1cnn(C23CC4CC(CC(C4)C2)C3)c1)c1cnn2cccnc12 | u | i
COC(=O)[C@@]1(Cc2ccc(F)cc2)[C@H]2c3cc(C(=O)N4CCCC4)n(Cc4c(CO)[nH]cc(C)c4=O)c3C[C@H]2CN1C(=O)c1ccccc1 | x | i
Cc1ccc(C(=O)N(CN2CCCC2=O)c2ccc(F)cc2)cc1C | >57 | i
Cc1cc(NC(=O)c2cc3nc4c(c(C(F)(F)F)n3n2)CCc2ccccc2-4)no1 | x | i
O=C(NCc1cccnc1)c1cc(-c2ccco2)on1 | >57 | i
COc1ccccc1-c1noc(CCC(=O)Nc2cccc(C(F)(F)F)c2)n1 | x | i
COCCCNC(=O)c1ccc(CS(=O)(=O)c2ccc(OC)cc2)o1 | x | i
Cc1ccc(C)c2[nH]c(=O)c(CCNC(=O)c3ccc4c(c3)OCO4)cc12 | >57 | i
Cc1csc(NC(=O)CNS(=O)(=O)c2cccs2)n1 | >57 | i
CCC(=O)N1CCc2cc(Br)cc(S(=O)(=O)CCC(=O)NCc3ccco3)c21 | >57 | i
O=C(Nc1ccc2c(c1)OCO2)c1cc2ncc(Br)cn2n1 | >57 | i
Cc1ccc(-c2nnc(-c3ccccc3)o2)cc1Br | >25.6 | x
